Screening results as filed in PubChem.
Polio RdRp inh = inhibitors of poliovirus RNA polymerase binding and polymerization | hit rate 0.66% among 150,000 | % elongation, % (compound at 16.7 µg/mL) | poliovirus polymerase elongation, fluorescence polarization; stronger effect = lower value | P03300; in the data active means % elongation below about 90%; further: some results filed as inactive read as strong as hits
Target sequence (P03300 1749-2209 limits assumed): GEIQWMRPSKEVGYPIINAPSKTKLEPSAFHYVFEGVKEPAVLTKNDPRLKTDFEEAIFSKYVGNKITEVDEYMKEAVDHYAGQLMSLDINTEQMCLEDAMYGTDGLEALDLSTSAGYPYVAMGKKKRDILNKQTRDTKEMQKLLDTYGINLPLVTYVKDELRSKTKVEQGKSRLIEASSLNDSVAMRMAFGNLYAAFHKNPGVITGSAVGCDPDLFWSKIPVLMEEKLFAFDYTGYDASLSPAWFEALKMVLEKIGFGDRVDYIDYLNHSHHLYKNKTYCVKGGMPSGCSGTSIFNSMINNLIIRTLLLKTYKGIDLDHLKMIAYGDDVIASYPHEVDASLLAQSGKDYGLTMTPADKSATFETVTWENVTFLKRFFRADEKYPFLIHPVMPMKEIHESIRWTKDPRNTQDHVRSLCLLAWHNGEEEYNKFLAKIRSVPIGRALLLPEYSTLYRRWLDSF
Polio RdRp inh intensity = second read-out of Polio RdRp inh, no call of its own (marks repeat the call); % elongation; measured here: total intensity read-out; formula for this scale not given here;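 total fluorescence in place of polarization; lower means less elongation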
An asterisk follows results filed as active.

Sample of the layout (2 entries):
SMILES	Polio RdRp inh	Polio RdRp inh intensity
CC1Cc2cc(S(=O)(=O)NCc3ccccc3)ccc2N1C(=O)C1CCC1 (configuration not stated)	114	116
Cc1ccccc1NC(=O)c1ccc2c(c1)c(C)c(C)n2Cc1ccccc1	110	112

The listing, from the start:
SMILES	Polio RdRp inh	Polio RdRp inh intensity
CC1Cc2cc(S(=O)(=O)NCc3ccccc3)ccc2N1C(=O)C1CCC1 (configuration not stated)	114	116
Cc1ccccc1NC(=O)c1ccc2c(c1)c(C)c(C)n2Cc1ccccc1	110	112
Cn1c(=O)c2cc(C(=O)NC3CCCCCC3)sc2c2ccccc21	101	101
O=C(CSc1ncc(-c2ccccc2)[nH]1)Nc1ccc(F)cc1F	107	106
CC(=O)N1c2ccccc2C(=O)C1N1CCN(c2cccc(C)c2C)CC1 (configuration not stated)	113	110
CCn1cc(C(=O)NCCc2ccc(Cl)cc2)c(=O)c2cc(S(=O)(=O)N3CCOCC3)ccc21	104	105
CCCC(=O)N1CCN(c2nc3c(OC)ccc(C)c3s2)CC1	102	103
CCN(Cc1ccccc1)Cc1c(O)ccc2c(=O)c(-c3ccc(Cl)cc3)c(C(F)(F)F)oc12	101	101
CCOC(=O)CSc1nc2cc3c(cc2c(=O)n1CCCCCC(=O)NCc1ccc(OC)cc1)OCO3	109	107
COc1ccc(-c2cc(C(F)(F)F)nc(NCc3ccccc3)n2)cc1	103	104
CCOC(=O)c1c(C)[nH]c(C)c1S(=O)(=O)N1CCN(c2ccccc2OC)CC1	103	101
Cc1ccc(C(=O)NCC(c2ccco2)S(=O)(=O)c2ccccc2)cc1C (configuration not stated)	108	112
CC1=C(C(=O)Nc2ccc(C)cc2C)C(c2ccc[nH]2)n2ncnc2N1 (configuration not stated)	112	111
COc1cc(CN2CCN(S(=O)(=O)c3ccc(F)cc3)CC2)cc(OC)c1OC	98	96
Cc1cc(C)c(NC(=O)CSc2nccn2Cc2ccco2)c(C)c1	107	105
CCOC(=O)Cn1c(=O)oc2cc(S(=O)(=O)NCc3ccc(F)cc3)ccc21	108	112
COc1ccc(CC(=O)N2CCc3cc(OC)c(OC)cc3C2COc2ccc(F)cc2)cc1 (configuration not stated)	103	107
O=C(Nc1c2c(nn1-c1ccc(Cl)cc1)CS(=O)(=O)C2)c1cccc(F)c1	108	114
CCOC(=O)c1c(C)oc2ccc(N(C(=O)c3ccncc3)S(=O)(=O)c3ccc(F)cc3C)cc12	98	98
O=C(c1ccccc1Br)N(Cc1ccco1)Cc1ccco1	106	109
COc1ccc(-c2c(C#N)c(SCC(=O)Nc3ccc(C)c(C)c3)nc(C)c2C(=O)Nc2ccccc2)cc1OC	107	109
Cc1cc2n(n1)CCCN2C(=O)Nc1cccc(C)c1C	103	105
Cc1ccc(S(=O)(=O)c2nnn3c2nc(NCc2ccc(F)cc2)c2sccc23)cc1C	109	111
Cc1nc(-c2ccccc2)sc1CCNC(=O)C(=O)Nc1ccc2c(c1)OCCO2	112	110
O=C(NCc1ccccc1)C(=O)Nc1c2c(nn1-c1ccccc1)CSC2	103	101
Remaining list, next part
SMILES	Polio RdRp inh	Polio RdRp inh intensity
Cc1ccccc1Cn1c(C)c(CNCc2ccccc2)c(C(=O)O)c1C	105	110
CCc1ccc(NC(=O)CC2C(=O)N(c3cccc(OC)c3)C(=O)N2C2CCCC2)cc1 (configuration not stated)	105	102
COCCNC(=O)c1c(C)oc2nc(C)nc(N3CCOCC3)c12	107	113
CC(C)c1nn2c(=O)cc(COC(=O)c3cccc(NC(=O)COc4ccc(F)cc4)c3)nc2s1	108	113
O=C(c1cccn1-c1nnc(N2CCCC2)s1)N1CCN(c2ccc(Cl)cc2)CC1	101	106
COc1ccc(CCNC(=O)c2cnn(-c3cccc(C)c3)c2C2CCN(C(=O)OC(C)(C)C)CC2)cc1OC	102	103
COc1ccc(Cc2nc3ccc(C(=O)NCc4ccccc4Cl)cc3o2)cc1	107	109
CCOC(=O)c1noc2ncn(CC(=O)Nc3ccc(F)cc3Cl)c(=O)c12	109	111
CCOC(=O)C1CCCN(C(=O)c2cc3c(=O)n(C)c4ccccc4c3s2)C1 (configuration not stated)	103	105
Cc1ccc2c(CC(=O)N3CCN(c4cccc(Cl)c4)CC3)coc2c1C	117	112
COc1ccc2c(c1)c1c(c(=O)n(CCc3ccccc3)c(=O)n1Cc1ccccc1)n2C	108	103
COc1ccccc1NC(=O)CSc1oc(-c2cccs2)nc1S(=O)(=O)c1ccccc1	103	106
Cc1cc(C)c(Cn2c(=O)n(CCC(=O)NCCc3ccccc3)c(=O)c3ccccc32)c(C)c1	111	113
Cc1ccc(CNC(=O)CSc2nc3n[nH]c(C)c3c(=N)n2-c2cccc(C)c2)cc1	105	97
COc1cccc(-c2nnc3n(Cc4ccc(F)cc4)c(=O)c4ccccc4n23)c1	109	115
CCc1ccccc1NC(=O)CC(C)n1nc(C)cc1C (configuration not stated)	107	113
CC(=O)Nc1ccc(S(=O)(=O)N2CCC(n3c(C(F)(F)F)nc4cccnc43)CC2)cc1	108	102
Cc1cccc2sc(N(Cc3cccnc3)C(=O)C3COc4ccccc4O3)nc12 (configuration not stated)	100	105
Cc1ccc(-n2ncc(C(=O)NCCc3ccccc3)c2C2CCN(C(=O)OC(C)(C)C)CC2)c(C)c1	107	113
Cc1ccc(C(=O)Nc2nc3n(n2)C(c2ccc(F)cc2)C=C(c2ccccc2)N3)cc1 (configuration not stated)	112	153
Cc1c(C(=O)N(Cc2ccco2)Cc2ccccc2Cl)oc2ccc(F)cc12	103	100
CC1(C)CC(=O)c2c(oc3c(Cl)cc(NS(=O)(=O)c4ccc(Cl)cc4)cc23)C1	104	106
Cc1ccc(CN2C(=O)N(c3ccc(F)cc3)C(=O)C2CC(=O)Nc2ccc(Cl)cc2)cc1 (configuration not stated)	108	106
CC(=O)c1cccc(NC(=O)CSc2nnc3ccc(-c4ccc(Cl)cc4)nn23)c1	112	98
CC(=O)N1CCC(N(Cc2ccc(C)o2)C(=O)Nc2ccc(C)cc2)CC1	109	108
(list continues)
SMILES	Polio RdRp inh	Polio RdRp inh intensity
O=C(c1ccccc1)N1CCN(CCc2ccncc2)CC1	107	110
COc1cc(OC)c(NC(=O)CN2C(=O)CCn3nc(-c4cccn4C)cc32)cc1Cl	107	109
CCOc1ccc(-c2nnc(SCC(=O)Nc3cccc(C#N)c3)o2)cc1	97	102
Cn1c(=O)c2c(ncn2CC(=O)Nc2cccc(C(F)(F)F)c2)n(C)c1=O	108	112
COc1cc(OC)c(NC(=O)N2CC=C(c3c[nH]c4ccccc34)CC2)cc1Cl	120	173
O=C(c1ccco1)n1nc(-c2ccccc2)nc1NCc1ccc(F)cc1	104	108
CCc1ccccc1OCCSc1nnc(-c2cc(OC)c(OC)c(OC)c2)o1	107	103
COc1ccc(-c2cc(C(F)(F)F)nc(SCC(=O)NCCc3ccccc3)n2)cc1OC	105	111
COc1ccc(Cl)cc1NC(=O)CN1Cc2ccccc2C1=O	106	110
CCCCCC(=O)Nc1ccc(NC(=O)c2cc3ccccc3o2)c(OC)c1	103	106
C=Cc1ccc(Cn2c(C)c(CNCCc3ccc(OCC)cc3)c(C(=O)O)c2C)cc1	103	106
COc1cc(NC(=O)CN2C(=O)C(c3ccc(C)cc3)=NC23CCCCCC3)cc(OC)c1	108	111
Cc1ccc(-n2c(SCCC(C)C)nc3sc4c(c3c2=O)CC(C)(C)OC4)cc1	102	104
Cc1cccc(N2CC(C)Cn3c2nc2c3c(=O)n(CC(=O)O)c(=O)n2C)c1 (configuration not stated)	102	99
Cc1ccc(-c2nc3c4ccccc4n(CC(=O)N4CCN(c5ccccc5F)CC4)c(=O)n3n2)cc1	100	106
N#Cc1c(-c2ccccc2)cc(-c2ccccc2)nc1SCC(O)CS(=O)(=O)Cc1ccc(Cl)cc1 (configuration not stated)	89*	91*
O=C(COc1ccc(Cl)cc1)Nc1ccc(-c2nc3cc(Cl)ccc3o2)c(O)c1	112	113
COc1ccc2c(c1)c(=O)c(S(=O)(=O)c1ccc(C)c(C)c1)cn2CC(=O)Nc1ccccc1	101	105
CCN1CCN(c2c(S(=O)(=O)c3ccc(C)c(C)c3)cnc3cc(OC)c(OC)cc23)CC1	100	107
Cc1ccc(CNC(=O)c2sc3nc(-c4ccccc4)cn3c2C)cc1	107	107
COc1cc(Cl)c(C)cc1NC(=O)c1cc2c(s1)-c1c(C)cccc1OC2	102	110
O=C(O)Cn1c(-c2cccs2)cc2cc(Cl)ccc21	108	114
COc1ccc(CNC(=O)c2cnc(N(C)C)nc2)cc1	113	109
COc1ccc(Cn2nnc3c(=O)[nH]c(C4CCN(C(=O)c5ccc(C)cc5)CC4)nc32)cc1OC	106	111
Cc1ccc(NC(=O)c2sc3nc[nH]c(=O)c3c2C)cc1C	114	112

3 entries from above, reformatted.
Structure,Polio RdRp inh,Polio RdRp inh intensity
Cn1c(=O)c2c(ncn2CC(=O)Nc2cccc(C(F)(F)F)c2)n(C)c1=O,108,112
COc1cc(OC)c(NC(=O)N2CC=C(c3c[nH]c4ccccc34)CC2)cc1Cl,120,173
O=C(c1ccco1)n1nc(-c2ccccc2)nc1NCc1ccc(F)cc1,104,108

The list continues:
SMILES	Polio RdRp inh	Polio RdRp inh intensity
Cc1cc(N2CCCCC2)nc2ccc(NC(=O)c3cccc(F)c3)cc12	107	102
Cc1ccc(CNC(=O)c2cccc(-n3cnc4cccnc43)c2)cc1	106	105
O=C(Nc1onc2c1CCCC2)c1ccccc1	113	105
COc1ccc(OCC(=O)NCc2ccc3c(c2)CCN3C(=O)c2ccc(F)cc2)cc1	103	96
COc1ccccc1-c1c(C)nn2c(N3CCN(c4cccc(Cl)c4)CC3)cc(C)nc12	109	107
COc1cccc(-c2nc3c(C#N)c[nH]n3c2NC2CCC(C)CC2)c1 (configuration not stated)	105	111
Cc1cc(NC(=O)CN(C)S(=O)(=O)c2ccc3c(c2)CCC(=O)N3)ccc1Br	103	104
CCOc1ccccc1NC(=O)n1ncc2cc(Cl)ccc21	102	100
Cc1cc(C)cc(Nc2nc3c(S(=O)(=O)c4cccc(Cl)c4)nnn3c3ccsc23)c1	107	112
CCOC(=O)c1c(C)oc2ncnc(NCCc3ccccc3)c12	109	112
Cc1nc2ccn(Cc3cccnc3)c(=O)c2cc1C(=O)Nc1ccc(OC(F)(F)F)cc1	104	104
CCc1ccc(CNC(=O)c2cc3cc(S(=O)(=O)N4CCCCC4)ccc3n2C)cc1	111	118
COc1cc(N2C(=O)CSC23C(=O)N(Cc2cccc(F)c2)c2ccccc23)cc(OC)c1OC (configuration not stated)	109	106
COc1cccc(C(=O)c2cn(CC(=O)Nc3cccc(C(F)(F)F)c3)c3nc(C)ccc3c2=O)c1	111	113
Cc1cc(NC(=O)c2ccc(Cl)c(Cl)c2)ccc1-c1cc2ccccc2oc1=O	104	108
Cc1cc(N2CCN(C)CC2)nc2ccc(NC(=O)Nc3ccccc3Cl)cc12	103	109
COc1ccc(OCc2ccc(-c3nc(C#N)c(N4CCN(C)CC4)o3)o2)cc1	105	100
CCCCCN1C(C(=O)c2ccccc2)=C(NC(=O)c2ccc(C)cc2)c2ccccc2S1(=O)=O	104	107
CCOC(=O)CCn1nc(-c2ccc(C)cc2)c2ccccc2c1=O	107	110
COc1cccc(Cn2c(SCc3ccc(C(=O)N4CCC(C)CC4)cc3)nc3ccncc32)c1	103	97
O=S(=O)(c1cccc(Cl)c1)c1nnn2c1nc(NC1CCCC1)c1sccc12	101	104
CCCn1c(-c2ccc(S(=O)(=O)N3CCOCC3)cc2)csc1=Nc1ccc(OCC)cc1	100	100
Cc1ccc2nc(NC(=O)CSc3nccn3Cc3ccc(F)cc3)sc2c1	110	114
COc1cccc(CNC(=O)c2ccc(-c3nc(COc4ccccc4)c(C)o3)cc2)c1	106	111
COc1cccc2c1cc1c(=O)n(CC(=O)N3CCN(c4ccc(Cl)cc4)CC3)nc(C)n12	112	105
(more compounds)
SMILES	Polio RdRp inh	Polio RdRp inh intensity
Fc1ccc(-c2cn3cc(Cc4ccccc4)sc3n2)cc1	106	109
CCN(CC)C(=O)c1ccc2c(c1)N(Cc1ccc(C(F)(F)F)cc1)C(=O)c1ccccc1S2	112	107
Cc1cc(C)c(/C=C/c2onc(C)c2S(=O)(=O)N2CCC(C(=O)NCC(C)c3ccccc3)CC2)c(C)c1 (configuration not stated)	101	97
COc1ccc(Cl)cc1-n1c(CCC(=O)O)ccc1-c1ccc(C)cc1	106	106
CC1=C(C(=O)Nc2ccc(C)cc2)C(c2ccccc2Cl)n2nnnc2N1 (configuration not stated)	104	98
COC(=O)c1ccc2c(c1)N(CC(=O)Nc1cccc(C(F)(F)F)c1)C(=O)c1ccccc1S2	105	107
O=S(=O)(NCCc1csc2nc(-c3ccc(F)cc3)nn12)c1ccc2c(c1)OCCO2	102	102
COc1ccc(CCNS(=O)(=O)c2c(C)nc3sc(C)cn3c2=O)cc1OC	108	106
Cc1ccc(S(=O)(=O)c2cn(Cc3cccc(F)c3)c3cc(N4CCCC4)c(F)cc3c2=O)cc1	110	110
CCCOc1ccc(/C=C/C(=O)Nc2sc3c(c2C(=O)OCC)CCC(C)C3)cc1OC (configuration not stated)	102	104
Cc1ccc(CN2c3ccccc3S(=O)(=O)c3ccccc32)cc1	108	118

7 of the compounds above, with two lines to a compound.
Under each structure: Polio RdRp inh | Polio RdRp inh intensity
- CC1=C(C(=O)Nc2ccc(C)cc2)C(c2ccccc2Cl)n2nnnc2N1 (configuration not stated)
  104 | 98
- COC(=O)c1ccc2c(c1)N(CC(=O)Nc1cccc(C(F)(F)F)c1)C(=O)c1ccccc1S2
  105 | 107
- O=S(=O)(NCCc1csc2nc(-c3ccc(F)cc3)nn12)c1ccc2c(c1)OCCO2
  102 | 102
- COc1ccc(CCNS(=O)(=O)c2c(C)nc3sc(C)cn3c2=O)cc1OC
  108 | 106
- Cc1ccc(S(=O)(=O)c2cn(Cc3cccc(F)c3)c3cc(N4CCCC4)c(F)cc3c2=O)cc1
  110 | 110
- CCCOc1ccc(/C=C/C(=O)Nc2sc3c(c2C(=O)OCC)CCC(C)C3)cc1OC (configuration not stated)
  102 | 104
- Cc1ccc(CN2c3ccccc3S(=O)(=O)c3ccccc32)cc1
  108 | 118

Only part of the results is shown; the hit share may differ from the screen's.
